RecA splice inh: Mtb RecA intein splicing inhibitors, primary screen, biochemical, fluorescence, HTS. inhibition, %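 (about 9 µM by stock and volumes)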. cell-free RecA intein splicing. 290,000 tested, 0.75% active. Protein RecA (Mycobacterium tuberculosis (strain ATCC 25618 / H37Rv)), P9WHJ3; in the data active = inhibition above about 30%; inconclusive = no clear call, values can overlap the other calls;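 also: 0% = vehicle wells and 100% = reference inhibitor control wells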
Target sequence (P9WHJ3 whole entry, looked up, canonical isoform): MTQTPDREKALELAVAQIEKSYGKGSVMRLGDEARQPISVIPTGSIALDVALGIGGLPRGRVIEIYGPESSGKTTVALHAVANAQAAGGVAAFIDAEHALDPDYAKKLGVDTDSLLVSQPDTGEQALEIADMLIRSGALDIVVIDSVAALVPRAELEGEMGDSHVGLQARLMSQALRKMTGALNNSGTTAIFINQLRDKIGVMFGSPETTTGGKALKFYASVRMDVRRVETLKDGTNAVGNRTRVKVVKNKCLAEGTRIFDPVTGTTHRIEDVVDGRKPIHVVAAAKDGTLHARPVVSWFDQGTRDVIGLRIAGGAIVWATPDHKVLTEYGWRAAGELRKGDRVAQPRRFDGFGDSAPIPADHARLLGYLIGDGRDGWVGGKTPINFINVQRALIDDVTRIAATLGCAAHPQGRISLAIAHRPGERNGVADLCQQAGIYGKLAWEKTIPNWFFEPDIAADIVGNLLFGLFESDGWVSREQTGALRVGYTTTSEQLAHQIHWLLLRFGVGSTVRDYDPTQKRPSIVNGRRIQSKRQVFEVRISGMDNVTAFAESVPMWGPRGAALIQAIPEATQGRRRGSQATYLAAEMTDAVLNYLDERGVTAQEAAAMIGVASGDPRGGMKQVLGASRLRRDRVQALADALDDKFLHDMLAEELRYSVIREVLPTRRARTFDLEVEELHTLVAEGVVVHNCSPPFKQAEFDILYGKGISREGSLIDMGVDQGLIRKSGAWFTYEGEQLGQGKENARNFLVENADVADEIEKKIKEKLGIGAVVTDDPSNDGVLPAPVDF
YopH PTP inh: YopH tyrosine phosphatase inhibitors, primary screen, biochemical, fluorescence Ex485/Em525. inhibition, %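 (about 10 µM by stock and volumes)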. 140,000 tested, 0.16% active;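 active = inhibition of 50% or more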;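 also: controls were vehicle for no effect and minimum signal wells for full effect; inactives centre near -20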
Arbovirus inh: antivirals against arbovirus infection, primary screen, cell-based, full library, 10K replicate subset; arbovirus infection cell-based antiviral screen; inhibition, % at 10 µM; 200,000 tested, 0.37% active; AID 1251, 2008;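 active = inhibition from about 30%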;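 also: bluetongue infection of BSR cells; cell survival read as ATP light after 72 h; 0% = infected wells without compound and 100% = uninfected wells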
Mtb H37Rv: M. tuberculosis H37Rv growth inhibitors, H37Rv strain (AID 1626). M. tuberculosis H37Rv growth inhibition; higher % means a stronger effect. 220,000 tested, 0.95% active. one-dose inhibition, % at 10 µM; IC50 in µM for titrated hits;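 active = confirmed in a dose series; inconclusive = inhibition above 80% but not taken into the dose series; inactive = below 80% or under 30% at every dose of the series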;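 also: bacteria incubated seven days before Alamar blue readout; 0% = bacteria only wells and 100% = bacteria with antibiotic wells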
Mtb betalactam: beta-lactam sensitization of Mtb H37Rv, H37Rv; M. tuberculosis H37Rv growth with meropenem, percent inhibition; hits of this screen are not shown here; inhibition, % at 25 µM; 330,000 tested, 0.27% active;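 active = about 74% or more and at least 40 points above the plate without the antibiotic, then above 30% in a dose series; inconclusive = first-round hits that could not be retested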;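 also: growth measured after seven days incubation then overnight dye step; 0% = bacteria only wells and 100% = bacteria with antibiotic; twin plates without the antibiotic show which effects depend on it; some results filed as inactive read as strong as hits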
Arbovirus inh repeat: recorded beside Arbovirus inh, whose call it bears; inhibition, %; measured here: 10K subset replicate screen; many hits read low in the repeat;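 first of two repeat runs on a subset; 0% = infected and 100% = uninfected wells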
Numbers without * were called inactive; ? = inconclusive; . = no result given. Some of the compounds tested. The share of hits here may be higher or lower than overall.

SMILES	RecA splice inh	YopH PTP inh	Arbovirus inh	Mtb H37Rv	Mtb betalactam	others
COc1cccc(-c2nc(=S)c3c(n2Cc2ccco2)CCCC3)c1	1.7	-10	7	3%	2
CC(C(=O)NCC1(c2ccccc2)CCCC1)N1CCOCC1 (centres undefined)	-2.7	-18	3	0%	2
O=C(CSc1nc2[nH]ncc2c(=O)[nH]1)N1CCCCC1	-2.6	-19	4	3%	-9
O=C(CNCc1ccccn1)N1CCc2ccccc2C1	-6.0	.	.	1%	38
CCOC(=O)C1=C(C)NC(C)=C(C(=O)OCC)C1c1ccc(OC)cc1	-0.1	-53	-4	-6%	1
O=C(Nc1cccc(F)c1)C1CCN(C(=O)N2CCOc3ccccc32)CC1	1.1	.	.	.	9
CC1CCN(C(=O)CSc2ccc(-c3ccc(F)cc3)nn2)CC1	-5.4	-26	7	.	-3
CC(=O)C1=C(O)C(=O)N(c2nccs2)C1c1ccc(F)cc1 (centres undefined)	.	-23	6	-4%	0
Cc1cccc(-n2c(CCn3nc(C)c([N+](=O)[O-])c3C)n[nH]c2=S)c1	.	-10	0	1%	-9
CN(CC(=O)NCCCN1CCOCC1)S(=O)(=O)c1cc(Cl)ccc1Cl	-0.2	.	.	.	-4
Nc1cc2c(cc1[N+](=O)[O-])OCCOCCOCCO2	2.3	.	-7	2%	0
CC(C)(O)C#Cc1ccc(C(=O)NCc2cccs2)s1	4.4	-25	8	-6%	-3
COc1ccc(NC(=O)CSc2nnc(C)n2Cc2ccccc2)cc1	-3.3	18	-1	-5%	-7
CC(C)(C)CC(=O)NC(=S)N1CCCCCC1	2.4	-17	5	3%	-14
CCC(c1c(C)n(C)n(-c2ccccc2)c1=O)c1c(C)n(C)n(-c2ccccc2)c1=O	-0.1	6	4	0%	-3
Cc1cc(C(F)(F)F)nn1CC(=O)NNC(=S)Nc1cccc(Cl)c1	0.0	-6	7	-5%	-5
O=C1C2=C(Nc3ccccc3SC2c2ccco2)c2ccccc21 (centres undefined)	18	0	-27	1%	25
O=C1Nc2ccccc2S/C1=C/Nc1cccc(Cl)c1	1.4	-25	-6	-2%	-5
COc1ccc(C(=O)CN2C(=O)NC3(CCCCC3)C2=O)cc1OC	0.3	.	12	-6%	0
Cn1c(C(=O)c2ccncc2)cc2ccccc21	1.2	.	.	-9%	-2
COCCNC(=O)CN1C(=O)NC2(CCCc3ccccc32)C1=O (centres undefined)	2.8	.	.	.	-5
Nc1ccccc1C(=O)NNc1c2ccccc2nc2ccccc12	-11	.	.	4%	0
O=C(Nc1nccs1)c1cccc(N2C(=O)c3cccc4c([N+](=O)[O-])ccc(c34)C2=O)c1	-35	-2	-36	.	74
Cc1cc2oc(=O)cc(Cn3nnc(-c4ccc(Cl)cc4)n3)c2cc1C(C)C	0.2	-17	-4	8%	4
O=C(O)c1ccc(N/N=C/C=C/c2ccccc2)cc1	-1.1	.	.	12%	-1
CC(=O)/C(=C\N(C)C)Sc1ccc(C)cc1	-0.1	.	.	-9%	-1
COc1cccc(CN2CCNC(=O)C2CC(=O)NC2CCCCCCC2)c1 (centres undefined)	-1.2	.	.	.	8
O=C(NCc1ccccc1)c1cc[n+]([O-])cc1	-1.0	.	.	.	-6
COCCNc1ncnc2c1cnn2Cc1ccc(Cl)cc1	-6.0	-24	-8	-4%	10
COCCCn1c(=O)c2ccccc2n(CC(=O)NC2CCCCC2)c1=O	-3.3	.	.	.	-3
Cn1c(O)c(C=Nc2ccccc2)c(=O)n(C)c1=O	0.4	.	.	.	0
O=C(CSc1ncccn1)NCc1cccs1	-1.3	.	1	0%	-10
COc1ccc(C2Nc3ccccc3C(=O)N2NS(C)(=O)=O)c(OC)c1 (centres undefined)	-2.3	.	.	.	-2
O=C(COc1ccc(Cl)cc1[N+](=O)[O-])NC1CCCCC1	-1.2	.	-8	11%	-4
COC(=O)C1CCN(C(=O)/C(C)=C\c2ccccc2)CC1	-5.5	.	.	.	-12
O=C(CCSc1ccccc1)NC1CCCCCC1	-1.3	.	1	0%	-13
OCc1ccnc(Cl)c1	0.0	-16	-10	-3%	6
Clc1ccc(OCCn2c(-c3ccco3)nc3ccccc32)cc1	7.5	19	-24	-3%	73
Cc1cc(C)cc(N(CCC#N)C(=O)CSc2n[nH]c(N)n2)c1	-2.7	.	.	.	-2
CCOc1ccccc1-n1c(SCC(=O)NC)nnc1-c1ccco1	-2.1	-42	0	-2%	-1
CCOC(=O)N1CCN(C(=O)C2COc3ccccc3O2)CC1 (centres undefined)	-3.8	-27	3	-7%	-1
O=C(CCCN1C(=O)/C(=C/c2ccccc2)SC1=S)Nc1ccc(O)cc1	45*	.	-25	-1%	14
Cc1ccc(-n2c3c(cc(C(=O)NCc4ccco4)c2=O)C(=O)CC(C)(C)C3)cc1	.	-9	2	-7%	4	Arbovirus inh repeat=-4
CCc1ccc(OCC(=O)Nc2ccc3c(c2)COC3=O)cc1	0.3	-29	2	1%	?
Cc1ccc(CNC(=O)CSc2nc(=O)n3cccc(C)c3n2)cc1	2.0	.	.	.	-2

As a short view, some entries already given:
SMILES	RecA splice inh	YopH PTP inh	Arbovirus inh	Mtb H37Rv	Mtb betalactam	others
CCOC(=O)N1CCN(C(=O)C2COc3ccccc3O2)CC1 (centres undefined)	-3.8	-27	3	-7%	-1
O=C(CCCN1C(=O)/C(=C/c2ccccc2)SC1=S)Nc1ccc(O)cc1	45*	.	-25	-1%	14
Cc1ccc(-n2c3c(cc(C(=O)NCc4ccco4)c2=O)C(=O)CC(C)(C)C3)cc1	.	-9	2	-7%	4	Arbovirus inh repeat=-4

Later entries:
SMILES	RecA splice inh	YopH PTP inh	Arbovirus inh	Mtb H37Rv	Mtb betalactam	others
COc1cc2c(cc1C1NC(=S)NC(C)=C1C(=O)N(C)C)CCCC2 (centres undefined)	14	-13	10	0%	-3
Oc1ccc(N=C/C=C/c2cccc(Br)c2)cc1-c1nc2ccccc2s1	-7.5	-33	-9	-2%	2
C=CCC1NS(=O)(=O)OCC1NC(=O)OCC(Cl)(Cl)Cl (centres undefined)	1.9	.	.	.	-1
CCNc1nc(SCCOc2ccc(Cl)cc2Cl)nc(N(C)C)n1	3.5	.	30*	10%	.
Cn1cccc1C(C(=O)NC1CCCCC1)N(C(=O)Cc1cccs1)c1ccc2c(c1)OCO2 (centres undefined)	4.0	-40	6	4%	8
CC(C(=O)Nc1ccccc1F)N1CCN(C)CC1 (centres undefined)	-1.2	.	.	.	-3
CC1(C)CC2CC(C)(CN2C(=O)COc2cccc3ccccc23)C1 (centres undefined)	-0.3	-30	11	6%	3
CS(=O)(=O)c1nc(S(=O)(=O)c2ccc(Cl)cc2)c(N2CCC(C(N)=O)CC2)s1	-0.3	.	.	.	-1
Cc1nn(-c2ccc(N3CCOCC3)nn2)c(C)c1CCC(=O)NCc1ccc(F)cc1	0.0	.	.	.	1
Cc1ccc2ccccc2c1COC(=O)c1nonc1N	3.6	-1	3	-2%	28
O=C1C(=O)N(CCN2CCOCC2)C(c2ccc(F)cc2)/C1=C(/O)c1ccc(S(=O)(=O)N2CCOCC2)cc1 (centres undefined)	-1.5	.	.	.	-7
COc1ccc([N+](=O)[O-])cc1NC(=O)C1CCCO1 (centres undefined)	-0.2	-38	-7	5%	0
C=CCNC(=S)Nc1ccc(C(N)=O)cc1	1.2	.	-7	-2%	1
O=C(Nc1ccc(F)cc1)c1ccccc1NC(=O)C1CC=CCC1C(=O)O (centres undefined)	-0.9	.	.	.	-1
Cc1cc(NC(=O)c2cccnc2)ccc1NC(=O)c1ccco1	0.7	9	-2	-8%	4
COc1cc(-c2nnc(SCc3c(F)cccc3Cl)o2)cc(OC)c1OC	15	6	-8	-9%	11
CN1CCN(C(=O)COc2ccc(S(=O)(=O)NCc3ccccc3)cc2Cl)CC1	0.0	-8	-2	2%	3
O=C(CN1C(=O)CN=C(c2ccccc2)c2ccccc21)NCc1ccco1	0.7	-31	6	-2%	-8
O=C(Cn1ccc(C(F)(F)F)n1)N/N=C/c1cccs1	0.1	-31	7	2%	4
CC1CCCCN1S(=O)(=O)c1ccc(S(=O)(=O)N2CCN(c3ccccc3)CC2)cc1 (centres undefined)	-0.8	-33	7	-5%	-8
C[C@]12C(=O)N(c3ccc(Cl)cc3)C(=O)N1[C@H]1c3ccccc3OC[C@@H]1[C@H]2c1ccccc1	6.6	.	.	.	59
C=CCNC(=O)c1c(-c2c(F)cccc2Cl)noc1C	0.5	-1	0	-3%	-5
CC(C)CC(=O)NC(=S)Nc1ccccc1N1CCCC1	2.3	.	.	4%	23
C[C@]12CCC(=O)C(O)=C1CC[C@@H]1[C@@H]2CC[C@]2(C)C(=O)CC[C@@H]12	-0.5	-32	0	-4%	-5
CC1N(C)c2cc(NC(=O)c3ccco3)ccc2C1(C)C (centres undefined)	0.0	-22	-19	46%	31
COc1ccc(OCC(O)Cn2c(N)nc3c2c(=O)[nH]c(=O)n3C)cc1 (centres undefined)	-0.1	.	.	0%	-10
O=C(C1CCN(c2nnc(-n3cccc3)s2)CC1)N1CCOCC1	2.6	-30	0	1%	0	Arbovirus inh repeat=-1
O=C1c2ccccc2S(=O)(=O)c2cc(C(=O)N3CCN(c4ccccc4)CC3)ccc21	2.7	.	.	12%	3
CCOC(=O)CN(C(=O)c1snc(C(N)=O)c1N)C(C(=O)NCCC(C)C)c1ccc(F)cc1 (centres undefined)	1.0	.	.	.	2
Cc1ccc(CC(=O)N2CCN(S(=O)(=O)c3ccccc3)CC2)cc1C	3.3	.	.	.	-4
CC(C)(C)c1cc(O)c(C(C)(C)C)cc1O	-1.9	.	.	.	-5
CN(C)CCn1c2c(c(SCC(=O)Nc3ccc4c(c3)OCCO4)nc1=O)CCCC2	1.5	.	.	.	-7
CC(C)(C)NC(=O)C(=O)NNC(=O)COc1ccc(Br)cc1	-2.2	-16	2	?	2
CC(NC(=O)c1cc2cc(Cl)ccc2oc1=N)c1ccccc1 (centres undefined)	-0.6	.	.	.	47
CCn1c(C)c(C)c2cc(C(=O)NCCc3ccco3)ccc21	6.5	.	.	.	14
COc1ccc(NC(=S)c2ccc3ccccc3n2)cc1	3.9	.	.	.	61
O=C(O)COc1ccc2c3c(c(=O)oc2c1)CCC3	-3.2	-41	0	-4%	-8
O=C(O)c1ccc2c(=O)n3c(nc2c1)/C(=C/c1ccc(C(F)(F)F)cc1)CC3	2.5	.	.	.	2
COc1ccc2cc(CN(CCO)C(=O)c3ccc(Br)cc3)c(=O)[nH]c2c1	-1.3	14	4	-7%	.
CCCCCCC1CCC(C(=O)Nn2c(C)nc3ccccc3c2=O)CC1 (centres undefined)	-1.4	-13	5	22%	13
CCOC(=O)N/N=C(\C)c1ccc(C)c([N+](=O)[O-])c1	-1.4	-35	-9	-7%	-4
Cc1[nH]n(-c2ccc(Cl)c(Cl)c2)c(=O)c1CCO	14	.	1	37%	-3
COc1ccc(CNC(=O)C(=O)NCC(c2ccco2)N2CCOCC2)cc1 (centres undefined)	-3.7	-18	-4	3%	1
CCc1cc(=O)oc2cc(C)cc(OCC(=O)NCc3ccncc3)c12	0.8	.	.	.	-2
COc1ccc(-c2csc3ncnc(N4CCN(S(=O)(=O)c5ccc(C(C)=O)cc5)CC4)c23)cc1	7.8	.	.	.	-13

4 structures already listed, ordered by SMILES length, low to high:
SMILES	RecA splice inh	YopH PTP inh	Arbovirus inh	Mtb H37Rv	Mtb betalactam	others
CC(C)(C)c1cc(O)c(C(C)(C)C)cc1O	-1.9	.	.	.	-5
CCCCCCC1CCC(C(=O)Nn2c(C)nc3ccccc3c2=O)CC1 (centres undefined)	-1.4	-13	5	22%	13
CCc1cc(=O)oc2cc(C)cc(OCC(=O)NCc3ccncc3)c12	0.8	.	.	.	-2
CN(C)CCn1c2c(c(SCC(=O)Nc3ccc4c(c3)OCCO4)nc1=O)CCCC2	1.5	.	.	.	-7

New compounds follow:
SMILES	RecA splice inh	YopH PTP inh	Arbovirus inh	Mtb H37Rv	Mtb betalactam	others
CCN(CC)C(=O)COc1ccc2oc(C)c(C(=O)OC)c2c1	.	31	-6	-4%	-1
O=C(NC1CCCCCC1)c1ccc(CN2CCOCC2)cc1	3.5	4	14	.	-2
CCOc1ccccc1OCCOCCN1CCN(Cc2ccccc2)CC1	0.7	.	-4	-1%	-1
COc1ccc(Oc2nc(-c3cccnc3)nc3ccccc23)cc1	1.8	.	.	14%	48
Fc1ccc(Nc2ccnc(C(F)(F)F)c2)cc1	-1.3	.	.	.	-3
COc1ccc(CC(=O)Nc2ccc(S(=O)(=O)NCC3CCCO3)cc2)cc1 (centres undefined)	-0.8	6	2	-9%	1
COc1cccc(SCc2noc(C(=O)NC(C)C)c2C(=O)NC(C)C)c1	0.7	.	.	.	2
O=C(COc1ncnc2cc([N+](=O)[O-])ccc12)NCCc1ccc(Cl)cc1	-1.5	.	-2	6%	0

Screening results: PubChem, several laboratories
